Cruzain inh Det: qHTS Assay for Promiscuous and Specific Inhibitors of Cruzain (with detergent) | purified cruzain, Z-FR-AMC fluorescence, 0.01% Triton | actives 0.43% (n = 200,000) | Cruzipain (Trypanosoma cruzi), P25779 | AID 1478, 2009 | Potency, µM, inactives show max response, negative = inhibition, hits mostly inhibitors;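 note: plate controls were neutral wells for no effect and buffer without enzyme for full effect; nearly all actives have a fitted effect of over 40% in size; top concentration of the series not given in the record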
Target sequence (P25779 123-467 limits assumed): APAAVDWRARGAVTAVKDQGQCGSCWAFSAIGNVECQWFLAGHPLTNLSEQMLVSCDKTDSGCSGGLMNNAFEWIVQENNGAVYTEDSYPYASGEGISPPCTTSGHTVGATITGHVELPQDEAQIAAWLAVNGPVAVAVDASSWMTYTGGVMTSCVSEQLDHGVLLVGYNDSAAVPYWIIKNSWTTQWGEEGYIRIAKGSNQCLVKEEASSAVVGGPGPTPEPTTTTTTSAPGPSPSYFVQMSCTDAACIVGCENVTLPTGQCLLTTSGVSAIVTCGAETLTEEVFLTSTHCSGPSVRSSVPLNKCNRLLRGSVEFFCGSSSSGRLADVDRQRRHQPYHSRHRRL
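Read-out: AMC fluorescence (360 nm excitation, 450 nm emission), four reads over 2 min, first-to-third difference used. Conditions: cruzain 1.5 nM, Z-FR-AMC 2 uM, pH 5.5 acetate, 5 mM DTT, 0.01% Triton X-100.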
Lassa entry inh: qHTS for Inhibitors of binding or entry into cells for Lassa Virus; Lassa virus pseudotype entry inhibition, cell reporter; control for the full effect not named in the record; Potency, µM (highest dose often 37.9 µM), for inactives: at the top dose activity change, negative = inhibition, usual class: inhibitors; actives 1.2% (n = 300,000); active means well fitted inhibition curve with a large enough effect; inconclusive means small, poorly fitted or top-dose-only effect, or effect the other way; inactive means flat fitted curve, though single readings scatter; tested in HEK293 cells; note: % is set by controls: 0 for no effect and ±100 for the full control effect; nearly all actives have a fitted effect of over 50% in size; luciferase read-out
RE007 growth inh: qHTS Assay for Inhibitors of the HIV-1 protein Vpr. S. pombe RE007 Vpr strain, BacTiter-Glo ATP luminescence, 24 h; control for the full effect not named in the record. Potency, µM (series often up to 92.2 µM), inactives show top-dose activity change, negative = less growth. actives 0.21% (n = 360,000). AID 651644, 2012; active = well fitted falling curve with a large enough effect; inconclusive = small, poorly fitted or top-dose-only effect; inactive = no such curve, though single readings can be large or run the other way;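 note: % is set by controls: 0 for no effect and ±100 for the full control effect; nearly all actives have a fitted effect of over 50% in size; the assay follows cell death caused by Vpr and the record does not say whether a fall means rescue or toxicity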
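Fission yeast RE007 carrying one integrated HIV-1 vpr copy, seeded at OD 0.01 in PMG+AL medium with 23 nL pinned compound. Grown 24 h at 30 degrees; viability read by BacTiter-Glo luminescence after 5 min.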
SARS PLP yeast: qHTS of Yeast-based Assay for SARS-CoV PLP; S. cerevisiae expressing SARS-CoV PLpro, growth rescue; control for the full effect not named in the record; Potency, µM (highest dose often 32.9 µM), inactives show at the highest dose activity, positive = growth rescue; actives 0.19% (n = 330,000); AID 485353, 2010; active means well fitted rising curve with a large enough effect; inconclusive means small, poorly fitted or top-dose-only effect; inactive means no such curve, though single readings can be large or run the other way; note: 0% is about no effect; nearly all actives have a fitted effect of over 55% in size; growth read by luminescence after 48 h
Cruzain noTriton: qHTS Assay for Promiscuous and Specific Inhibitors of Cruzain (without detergent); Cruzipain (Trypanosoma cruzi), P25779; purified cruzain, Z-FR-AMC fluorescence, no detergent; Potency, µM, inactives show max response, negative = inhibition, usual class: inhibitors; actives 2.3% (n = 200,000);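 note: plate controls were enzyme without inhibitor for no effect and buffer without enzyme for full effect; nearly all actives have a fitted effect of over 40% in size; top concentration of the series not given in the record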
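Purified cruzain at 1.5 nM, pre-incubated 15 min with compound at room temperature in 100 mM sodium acetate pH 5.5, 5 mM DTT, 0.00005% Triton X-100. Reaction started with 2 uM Z-FR-AMC; AMC fluorescence increase over 60 s gives rate.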
MARV entry inh: qHTS for inhibitors of binding or entry into cells for Marburg Virus. Marburg virus pseudotyped entry inhibition, cell reporter; control for the full effect not named in the record; about a third of the inactives were read at about 46 µM. Potency, µM (series often up to 37.8 µM), without a hit: at the highest dose activity change, negative = inhibition, most hits filed as inhibitors. actives 1.8% (n = 300,000); active = well fitted inhibition curve with a large enough effect; inconclusive = small, poorly fitted or top-dose-only effect, or effect the other way; inactive = flat fitted curve, though single readings scatter; tested in HEK293 cells; about a fifth of its hits are not listed in these tables; note: % is set by controls: 0 for no effect and ±100 for the full control effect; luciferase read-out
NS1 inh: qHTS Assay for Inhibitors of Influenza NS1 Protein Function; Potency, µM (series often up to 46.1 µM), for inactives: at the highest dose activity, positive = more growth; S. cerevisiae slowed by influenza A NS1, growth recovery by OD600; actives 0.4% (n = 270,000); active means well fitted rising curve with a large enough effect; inconclusive means small, poorly fitted or top-dose-only effect; inactive means no such curve, though single readings can be large or run the other way; note: nearly all actives have a fitted effect of over 50% in size
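S. cerevisiae expressing influenza A NS1, grown in glucose, washed, then diluted 1:100 into pH 6.0 -URA galactose medium with 23 nl compound. Growth recovery read as OD600; NS1-free strain serves as control.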
StopGo reporter: High Throughput Screening for Foot and Mouth Disease Virus Antivirals; human cells with a luciferase reporter of 2A StopGo recoding; control for the full effect not named in the record; Potency, µM (top dose mostly 57.9 µM), inactives show top-dose signal change, negative = less light; actives 1.2% (n = 410,000); AID 1159524, 2015; active = well fitted falling curve with a large enough effect; inconclusive = small, poorly fitted or top-dose-only effect; inactive = no such curve, though single readings can be large or run the other way; tested in HEK293T cells; note: % is set by controls: 0 for no effect and ±100 for the full control effect; nearly all actives have a fitted effect of over 45% in size; luciferase light after 4 h
An asterisk follows results filed as active; ? = inconclusive; nt = not tested or not shown; & = joins results of further samples; [ ] = dose if it differs, or a comment. Unless noted, calls come from the whole dose curve; as a rule, active = well fitted curve in the direction sought with a large enough effect; inconclusive = small, poorly fitted or top-dose-only effect, or another doubt; inactive = no such curve, though single readings can be large; an effect the other way counts as inactive or inconclusive. Potency is the fitted concentration of half-maximal effect. Random draw from the library, and some 4.7% of all compounds hit somewhere here.

smiles,NS1 inh,RE007 growth inh,SARS PLP yeast,Lassa entry inh,MARV entry inh,StopGo reporter,Cruzain noTriton,Cruzain inh Det
C/C(CC(=O)NCc1ccc(Cl)cc1)=N\NC(=O)Cc1ccccc1,6%,2%,9%,0%,?,5%,8%,0.4%
O=C(Nc1ccc2c(c1)OCO2)C(c1ccc(Cl)cc1)N1CCC2(CC1)OCCO2 (stereo not given),-38%,6%,4%,5%,-19%[46.1 µM],-11%,-8%,3.5%
COc1cc(Cl)ccc1OCc1cc(C(=O)NC(C)Cc2cccnc2)no1 (stereo not given),-45%,-17%,-6%,?,12%,-11%,nt,nt
COc1ccccc1C=NNC(=O)c1ccncc1,nt,0%,nt,15%[46.1 µM],-1%[46.1 µM],-4%,nt,nt
Cn1nc(C(F)(F)F)c(/C=N/OC(=O)c2ccccc2)c1SCc1ccccc1Cl,-7%,-4%,-12%,?,?,?,-7%,-1.7%
COc1cc(CNn2cnnc2)ccc1OCC(=O)NC1CCCCC1,12%,9%[3.69 µM],8%,-5%,4%,-6%,9%,-0.3%
CCc1ccccc1OCC(=O)NCC1COc2ccccc2O1 (stereo not given),nt,0%,-14%,-7%[46.1 µM],-16%[46.1 µM],8%,nt,nt
Cc1ccc(C(c2c(C)[nH][nH]c2=O)c2c(C)[nH][nH]c2=O)cc1,-37%,-14%,0%,?,?,-18%,nt,nt
CCn1c2c(c(C)cc1=O)C(=O)CC(C)(C)C2,15%,2%,14%,11%,-3%,-7%,-7%,0.1%
COc1ccc(N2CCN(C(=O)CSc3ccccc3N)CC2)cc1,11%,11%,0%,-10%,-8%,nt,-23%,2.0%
O=C(Nc1ccc(C(=O)O)cc1)/C(=C/c1cccc(Br)c1)NC(=O)c1ccco1,nt,14%,-1%,20%[46.1 µM],0%[46.1 µM],-15%,nt,nt
CC1=CC(C)(C)NC(=O)N1c1ccc(C)cc1,nt,2%,0%,?,1%[46.1 µM],-3%,nt,nt
Cn1c(SCC(=O)N(Cc2ccccc2)C(C)(C)C)nc2ccccc21,-12%,-2%,-6%,-5%,?,-1%,-8%,-5.9%
COC(=O)c1ccccc1NC(=O)CCS(=O)(=O)c1ccc(Br)s1,1%,-12%,4%,-7%,?,-24%,4%,-2.9%
COc1ccc(C2CC(=O)c3cc(OC)ccc3O2)cc1 (stereo not given),nt,-2%,nt,0%[46.1 µM],21%[46.1 µM],38%[activator],nt,nt
CCCN1Cc2cccc(C(=O)NCCCOC(C)C)c2C1=O,-15%,1%,3%,17%,11%,17%,3%,1.4%
COc1ccc(-c2cc(C(=O)Nc3ccc(O)cc3)c3ccccc3n2)cc1OC,5%,3%,1%,nt,nt,5%,nt,nt
Cc1ccc(N2C(=O)[C@@H]3C(c4ccc(F)cc4)=NO[C@@H]3C2=O)cc1,-32%,-2%,-6%,4%,0%,-10%,1%,-7.9%
Cc1ccc(C(=O)CSc2ncnc3sc4c(c23)CCC(C)C4)cc1 (stereo not given),-8%,9%,15%,5%,7%,-8%,-21%,-0.4%
COc1cc(-c2nc3ccccc3nc2-c2ccc(O)c(OC)c2)ccc1O,6%,0%,-5%,nt,nt,-26%,nt,nt
Cc1nnc(NCc2ccco2)s1,1%,-10%,5%,-2%,?,-3%,0%,3.1%
COCCN(CC(=O)Nc1cccc(S(=O)(=O)N2CCCC2)c1)Cc1nc2ccccc2c(=O)[nH]1,nt,-4%,1%,3%,-26%,-10%,nt,nt
O=C(CN1CCN(Cc2ccc(Cl)cc2)C1=O)NCCCN1CCN(c2ccc(F)cc2)CC1,-5%,10%,9%,-23%,13µM*,?,-23%,-1.0%
Cc1ccccc1C(=O)NCC(c1cccnc1)N1CCc2ccccc21 (stereo not given),nt,nt,nt,-20%[46.1 µM],nt,0%,-4%,-1.5%
Nc1ccccc1SCC(=O)Nc1ccc2c(c1)OCO2,-16%,5%,2%,nt,nt,35%[activator],nt,nt
CCOc1cc(CNCCN(C)C)c(Cl)cc1OCC(=O)NCCc1ccccc1,1%,10%,-1%,13%,-25%,-5%,11%,4.9%
O=C(c1cccnc1)N1CCN(Cc2ccc3ccccc3c2)CC1,2%,1%,0%,nt,nt,?,nt,nt
Cc1ccc(-n2c(=O)[nH]cc(C(=O)Nc3ccc4c(c3)OCCO4)c2=O)cc1C,-13%&-30%,2%,3%,-5%,-12%,nt,?,0.3%
Cc1cc2c(cc1NC(=O)c1ccccc1Cl)n(C)c(=O)c(=O)n2C,nt,nt,nt,20%[46.1 µM],nt,0%,4%,-3.5%
Cc1ccc(-c2onc(C)c2C)cc1S(=O)(=O)NC1CCCCC1,nt,nt,nt,-16%[46.1 µM],nt,1%,?,-8.1%
CCOCCc1nnc(NC(=O)C(C)Oc2ccccc2)s1 (stereo not given),-9%,-7%,0%,6%[46.1 µM],2%[46.1 µM],-7%,nt,nt
CSc1ccc(CNC(=O)c2ccccc2NC(=O)c2nsc3ccccc23)cc1,nt,nt,nt,12%[46.1 µM],nt,-15%,-4%,2.3%
Fc1ccc(N/N=C2/CC(c3ccccc3)Oc3ccccc32)c(F)c1 (stereo not given),0%,22%,-12%,-29%,26%,2%,?,-7.5%
O=C(Nc1cc(Cl)ccc1Cl)C1CCCO1 (stereo not given),-5%,?,-5%,20%,-23%,2%,nt,nt
CC1COC(=O)C(NNc2ccc(Cl)c(Cl)c2)=N1 (stereo not given),nt,39%,-22%,2%,-16%,26%,nt,nt
O=C(CN(C(=O)CCC(=O)Nc1nccs1)c1ccccc1F)NCC1CCCO1 (stereo not given),-1%,11%,1%,-7%,?,1%,-4%,-2.3%
CCc1ccc(NC(=O)Cn2c(=O)n(-c3cc(OC)c(OC)c(OC)c3)c(=O)c3ccccc32)cc1,nt,nt,nt,7%[46.1 µM],-2%[46.1 µM],-4%,-1%,-2.7%
Cc1cccc(NC(=O)NNS(=O)(=O)c2ccc(F)cc2)c1,-6%,2%,-6%,?,-2%,-18%,-14%,-1.1%
O=C(Nc1ccnn1C1CCN(Cc2ccc(Cl)cc2)CC1)C1CCCC1,14%,-12%,-6%,-2%,-10%,-16%,nt,nt
Cc1ccc(P(=Nc2ccccc2)(N2CCOCC2)N2CCOCC2)o1,-73%,5%,-4%,20%,26%,nt,-7%,3.5%
CC(C)c1cccc(C(C)C)c1NC(=O)COC(=O)[C@H](C)NC(N)=O,4%,-13%,0%,3%,?,-15%,nt,nt
CC1CCN(c2ccc(C(=O)NCc3cccs3)cn2)CC1,-42%,8%,-13%,?,16%,nt,-7%,-6.8%
Cc1ccc(OCc2ccc(C(=O)Nc3ccc(S(N)(=O)=O)cc3)o2)cc1,nt,22%,-1%,1%,?,9%,nt,nt
COC(=O)c1oc2ccc(Br)cc2c1-n1cccc1,-14%,-10%,-2%,12%,1%,-8%,-1%,-2.8%
O=C1c2ccc(-c3nc4ccccc4o3)cc2C(=O)N1Cc1ccccc1,nt,18%,nt,-1%,12%,4%,nt,nt
CC(Cc1ccccc1)C(=O)Nc1ccc(Br)cc1 (stereo not given),-25%,-4%,-6%,nt,nt,35%[activator],nt,nt
CC(C)NC(=O)[C@H]1N2C(=O)c3ccccc3C2SC1(C)C (stereo not given in full),1%,-8%,1%,16%,1%,-16%,nt,nt
CC(C)(C)N1C(=O)c2ccc(C(=O)Nc3cc(C(=O)O)cc(C(=O)O)c3)cc2C1=O,16%,-14%,2%,nt,nt,-1%,nt,nt
Cc1cccc(N/N=C/c2ccncc2)c1,-52%,98%,-6%,?,-46%,47%[activator],nt,nt
Cn1c(SCC(=O)N2CCCCC2)nc2c([nH]c3ccccc32)c1=O,12%,-2%,-1%,nt,nt,0%,2%,-0.2%
COc1ccc2c(C)cc(=O)oc2c1,nt,-4%,nt,nt,nt,-22%&6%,-4%,-0.3%
COc1ccc(CNC(=O)COC(=O)/C=C/c2cccc(Cl)c2)cc1,nt,5%,-6%,11%[46.1 µM],-1%[46.1 µM],-14%,nt,nt
CCN(CC(=O)Nc1cc(Cl)ccc1C)C(=O)CC1CCCC1,nt,-6%,-1%,2%,?,-17%,nt,nt
COc1ccccc1CNC(=O)COC(=O)c1ccccc1-c1ccccc1,nt,12%,3%,7%[46.1 µM],-29%,-24%,nt,nt
CCOc1ccc(-c2nc(-c3ccccc3)no2)cc1OCC,3%,-2%,-1%,nt,nt,46%[activator],2%,-9.0%
COc1ccc(-n2c(SCC(=O)Nc3ccc4c(c3)OCO4)nc3c([nH]c4ccccc43)c2=O)cc1,nt,nt,nt,1%[46.1 µM],nt,-7%,-3%,-0.1%
O=S(=O)(/N=C(/Nc1cccnc1)c1ccccc1)c1ccc(F)cc1F,nt,11%,0%,5%,3%,6%,nt,nt
NC(=O)Nc1cccc2ccccc12,9%,3%,7%,11%,11%,-9%,6%,-1.8%
Cc1cc(C)n2cc(CSc3nc4cc(Cl)ccc4o3)nc2n1,-42%,-22%,-9%,4%,0%,?,21%,-8.7%
COc1cc(C(=S)N2CCOCC2)ccc1OS(=O)(=O)c1ccc(C)cc1,-2%,-2%,-2%,nt,nt,-7%,nt,nt

Further entries:
smiles,NS1 inh,RE007 growth inh,SARS PLP yeast,Lassa entry inh,MARV entry inh,StopGo reporter,Cruzain noTriton,Cruzain inh Det
Cc1ccc(S(=O)(=O)N2CCN(C(=O)CC(C)C)CC2)cc1,-2%,5%,2%,?,15%[46.1 µM],-1%,nt,nt
CC(C)(C)/C(O)=C(/C#N)c1nc2ccccc2[nH]1,-6%,17%,1%,23%,-29%,?,-4%,1.2%
Cc1ccc(S(=O)(=O)NCC(=O)OC2CCOC2=O)cc1 (stereo not given),0%,6%,0%,3%,18%,-3%,-25%,-12%
CCNC(=O)c1ccc(NC(=O)CC2SC(N3CCCC3)=NC2=O)cc1 (stereo not given),nt,2%,4%,3%,0%,-14%,nt,nt

From PubChem
